Mtb growth = Confirmatory growth inhibition assay against Mycobacterium tuberculosis H37Rv, potency (AID 1949). most inactive calls were filed without a number and no value below 0 was filed. inhibition, % at 10 µg/mL, or IC50 in µg/mL where a hit was titrated. 100,000 compounds, 1.6% hits;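 active means confirmed in a dose series; inconclusive means about 50% or more but not retested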;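 further: bacteria grown 7 days with compound before Alamar blue readout; 0% = untreated bacteria and 100% = reference antibiotic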
Starred values were filed as active, the others as inactive; i = inactive; ? = inconclusive.

| compound | Mtb growth |
| --- | --- |
| Cc1cccc(C)c1NC(=O)CC(C)(C)C | i |
| CCc1ccc(OCC(=O)NC(=S)Nc2cccc3nsnc23)cc1 | i |
| CCOC(=O)c1ccc(NS(=O)(=O)c2cc(OC)ccc2OC)cc1 | i |
| Cc1ccc(S(=O)(=O)Nc2ccccc2CNc2ccc(I)cc2)cc1 | 2% |
| O=C(COc1ccc(Cl)cc1Cl)Nc1ccc(N2CCOCC2)cc1 | i |
| Cc1ccc(S(=O)(=O)N(CC(=O)N2CCN(c3ccccc3)CC2)c2ccccc2Cl)cc1 | i |
| O=C(c1cc(S(=O)(=O)N2CCCCC2)c(Cl)cc1N1CCCC1)N1CCCCC1 | i |
| Cc1cccc(N2CCN(C(=O)N3CCCCC3)CC2)c1C | 13% |
| CC(C)(C)NC(=O)CSc1nc(-c2ccccc2)cc(=O)[nH]1 | i |
| CCOc1ccc(NC(=S)NC(NC(=O)c2cccc(I)c2)C(Cl)(Cl)Cl)cc1 (stereo not given) | 4% |
| Cc1ccc(-c2csc3ncn(CC(=O)Nc4ccc(Cl)cc4)c(=O)c23)cc1C | 13% |
| Cc1ccccc1OCC(=O)NC1CC2CCC1C2 (stereo not given) | i |
| CC1CCN(S(=O)(=O)c2ccc(NC(=O)CN3C(=O)c4ccccc4C3=O)cc2)CC1 | i |
| CCCCn1c(C=O)nc2ccccc21 | 15% |
| Cc1cc(=O)n2[nH]c(-c3cccnc3)nc2n1 | i |
| CCCNC(=S)Nc1ccc(C)cc1C | 12% |
| O=C(CN1CCN(c2ccccc2)CC1)Nc1ccc([N+](=O)[O-])cc1C(=O)c1ccccc1 | i |
| O=C(CSc1nnc(-c2ccncc2)o1)c1ccc2c(c1)OCCO2 | i |
| COc1ccc(CCNC(=O)COc2ccc(Cl)cc2Cl)cc1OC | i |
| O=C(CCNc1ccc(F)cc1)c1ccco1 | 5.4µg/mL* |

Further compounds follow:
| compound | Mtb growth |
| --- | --- |
| O=C(c1cc(-c2ccccn2)nc2c(Cl)cccc12)N1CCN(C(=O)C2CCCO2)CC1 (stereo not given) | 0% |
| CC1SC2(C(=O)Nc3ccccc32)N(c2ccc(Cl)cc2)C1=O (stereo not given) | 3% |
| CCCN(CCC)S(=O)(=O)c1ccc(NC(=O)c2c(-c3ccccc3)noc2C)cc1 | i |
| O=C(Nc1cccc(C(F)(F)F)c1)Nc1cnn(Cc2ccc(Cl)cc2Cl)c1 | i |
| Cc1cc2c(cc1C)NC(CC(=O)Nc1ccc(Cl)cc1Cl)C(=O)N2 (stereo not given) | 15% |
| Cc1cc(C(F)F)n2ncc(C(=O)O)c2n1 | 3% |
| CC(=O)Oc1ccc(-c2csc(Nc3ccccn3)n2)cc1 | 47% |
| O=C(Oc1ccc2c3c(c(=O)oc2c1)CCC3)c1ccco1 | i |
| O=C(CSc1nnc(CCCN2C(=O)c3cccc4cccc(c34)C2=O)n1-c1ccccc1)NCc1ccccn1 | i |
| CCSc1ncc(Cl)c(C(=O)Nc2ccc(S(=O)(=O)N3CCCCCC3)cc2)n1 | 4% |
| O=S1(=O)CCC(NS(=O)(=O)c2cccc3cccnc23)C1 (stereo not given) | i |
| CCOc1ccc(Nc2oc(COc3ccccc3F)nc2C#N)cc1 | i |
| CN(c1ccc(C(=O)Nc2ccccc2C(=O)NCc2ccccc2)cc1)S(C)(=O)=O | i |
| CCc1ccccc1N1C(=O)CC(Sc2ccccn2)C1=O (stereo not given) | 0% |
| Cc1nn(Cc2ccc(C(=O)N3CCN(Cc4ccccc4)CC3)o2)c(C)c1Br | i |
| CC(C)C(=O)Nc1cccc(NC(=O)c2cccc(Br)c2)c1 | i |
| CS(=O)(=O)c1ccc2nc(NC(=O)c3cccc(S(=O)(=O)N4CCCCCC4)c3)sc2c1 | i |
| Cc1cc(OCCCN2CCCC2)ccc1Cl | i |
| COc1cc(NC(=S)NC(=O)c2ccc(C)cc2C)ccc1NC(=O)c1ccccc1Cl | i |
| CCNC(=O)N1CCN(C(=O)NCC)CC1 | i |

Of the compounds above, 2 contain an NH in an aromatic ring:
| compound | Mtb growth |
| --- | --- |
| CC(C)(C)NC(=O)CSc1nc(-c2ccccc2)cc(=O)[nH]1 | i |
| Cc1cc(=O)n2[nH]c(-c3cccnc3)nc2n1 | i |

The list continues:
| compound | Mtb growth |
| --- | --- |
| O=C(NC(=S)Nc1ccc2oc(-c3ccncc3)nc2c1)c1ccccc1Cl | i |
| N#Cc1cn(CC(=O)NCc2cccnc2)c2ccccc12 | i |
| CCc1nnc(NC(=O)CSc2nc3ccc(C)cc3[nH]2)s1 | i |
| COC(=O)CNC(=O)c1ccc(Cl)cc1[N+](=O)[O-] | i |
| O=C(Nc1ccc(N2CCOCC2)cc1)c1nc2ccccc2s1 | i |
| COc1ccc(S(=O)(=O)N(CC(=O)NC2CC2)c2ccccc2OC)cc1 | i |
| N=C1/C(=C/c2ccc(OC(=O)c3ccco3)cc2)C(=O)N=C2SC=CN12 | 54% |
| Cc1ccccc1C(=O)Nc1ccc(Oc2ccccc2Cl)cc1 | i |
| Cc1nnc(SCC(=O)Nc2nnc(SCc3cccc(Br)c3)s2)s1 | i |
| O=C(NC(=S)Nc1ccc(C(=O)O)c(Cl)c1)c1ccccc1F | i |
| N#Cc1ccccc1Sc1ccccc1C(=O)Nc1ccccc1Cl | i |
| CCS(=O)(=O)NCc1ccc(F)cc1 | 1% |
| CC(=O)NC1CC(C)(C)N(OC(C)=O)C(C)(C)C1 | i |
| O=C(CN1C(=O)c2ccccc2S1(=O)=O)N1CCN(c2ccccc2)CC1 | i |
| Cc1cc(C)c(NC(=O)c2ccc3c(c2)C(=O)N(CC(C)C)C3=O)c(C)c1 | i |
| OCCN1CCN(c2ncnc3scc(-c4ccccc4)c23)CC1 | 5% |
| Fc1ccc(CCNC(=S)NC2CCCC2)cc1 | i |
| COc1ccccc1NC(=O)C1=C(C)NC(SCC(=O)Nc2cccc(C)c2)=C(C#N)C1c1cccs1 (stereo not given) | i |
| Cc1ccc(C(=O)N2CCN(C(=O)c3ccco3)CC2)cc1 | i |
| FC(F)(F)c1cccc(NC(=S)Nc2cccnc2)c1 | i |

(more compounds)
| compound | Mtb growth |
| --- | --- |
| O=C(Nc1ccccc1C(=O)Nc1ccc(F)cc1)c1cccs1 | i |
| Cc1ccc(C(=O)NCC(=O)NCC(=O)OCc2ccc(Br)cc2)cc1 | 6% |
| COc1ccc(C)cc1S(=O)(=O)N(C)CC(=O)N1CCOCC1 | i |
| CCOc1ccc(C(=O)NC(=S)NCCOC)cc1 | i |
| S=c1[nH]nc(-c2ccc(Cl)cc2Cl)n1N=Cc1ccc(Br)cc1 | i |
| Cc1cccc(NC(=O)CNS(=O)(=O)c2ccc(Cl)cc2)c1 | i |
| COC(=O)c1cc(OC)c(OC)cc1NC(=S)Nc1ccc([N+](=O)[O-])cc1OC | 2% |
| CCOc1cc(C(=O)Nc2ccc(N3CCCCC3)cc2)cc(OCC)c1OCC | i |
| O=C(NC(=S)Nc1cc(Cl)ccc1Cl)c1ccc(Br)cc1 | 4% |
| COc1ccc(NC(=O)CN(C2CCCCC2)S(=O)(=O)c2ccc(Cl)cc2)cc1OC | 1% |
| Cc1c(C#N)c2ccccc2n1CC(=O)Nc1ccc(Br)cc1 | 3% |
| COC(=O)c1ccccc1Oc1c(F)c(F)c(/C=C/CN2CCCCC2)c(F)c1F | i |
| C=CCc1cc(Cl)ccc1OCCn1ccnc1 | ? |
| O=C(Nc1ccc(N2CCN(Cc3ccccc3Cl)CC2)cc1)c1ccc2c(c1)OCO2 | i |
| COC(=O)CSc1nnc(-c2ccc(OC)cc2)n1-c1ccc(Cl)cc1 | i |
| CC1(C)CC(=O)C2=C(C1)N(CC1CCCO1)C(=O)C2(NC(=O)c1ccccc1)C(F)(F)F (stereo not given) | i |
| COc1cccc(NC(=S)N2CCN(C(=O)c3ccco3)CC2)c1 | i |
| COc1cc(CNC23CC4CC(CC(C4)C2)C3)ccc1OCc1ccccc1 | i |
| N#C/C(=C\c1ccccc1Cl)S(=O)(=O)c1ccccc1 | i |
| N#Cc1c(-c2ccccc2)[nH]c(=O)[nH]c1=O | i |

(next part)
| compound | Mtb growth |
| --- | --- |
| Cc1cccc(C)c1-n1nnnc1SCC(=O)Nc1nc(-c2ccccc2)cs1 | i |
| COC(=O)COc1ccc(S(=O)(=O)Nc2cc(OC)ccc2OC)cc1 | i |
| COc1cc(OC)c(NC(=O)c2ccc3c(c2)OCO3)cc1Cl | i |
| Cc1ccc(C(=O)Nc2cccc(F)c2)c(F)c1F | 0% |
| COc1ccc(C2(C(=O)NCCc3ccccc3)CCCC2)cc1 | 10% |
| NC1=NC(=O)CC(C(=O)Nc2cccc3ccccc23)S1 (stereo not given) | i |
| Cc1ccc(S(=O)(=O)N2CCN(c3ccnc4cc(Cl)ccc34)CC2)cc1 | ? |
| CCCCC(=O)NC(c1ccc(Cl)cc1)c1cc([N+](=O)[O-])c2cccnc2c1O (stereo not given) | i |
| COC(=O)c1ccccc1NC(=O)C1CCN(S(=O)(=O)c2c(C)cc(C)cc2C)CC1 | 3% |
| CCOC(=O)c1ccc(NC(=O)C2CCN(C(=O)c3ccc(Cl)cc3)CC2)cc1 | 29% |
| COc1c(OC(C)=O)ccc(/C=C/c2ccc3ccccc3n2)c1[N+](=O)[O-] | 8% |
| CCOC(=O)Cn1c(C)cc(=O)c2cccc(C)c21 | 49% |
| CC(=O)N1c2ccc(F)cc2C(C)CC12CCCC2 (stereo not given) | i |
| CN(C)Cc1c(O)ccc2c(=O)c(Oc3ccc(Br)cc3)c(C(F)(F)F)oc12 | i |
| COc1ccc(NC(=O)c2cc(NC(=O)c3ccccc3)cc(NC(=O)c3ccccc3)c2)cc1 | 0% |
| CCc1ccccc1NC(=O)c1cnccn1 | i |
| CC(C)(C)c1ccc2ccccc2[o+]1 | 16% |
| CC(=O)Nc1ccc2nc(NC(=O)c3ccc(-c4ccccc4)cc3)sc2c1 | i |
| O=S(=O)(c1ccc(NC(=S)Nc2ccccc2)cc1)N1CCCCCC1 | i |
| FC(F)(F)c1cccc(N2CCN(C(=S)Nc3ccc(Br)cc3Cl)CC2)c1 | i |

Next part
| compound | Mtb growth |
| --- | --- |
| Cc1cccc(NCC(O)Cn2c(C)c(C)c3ccccc32)c1 (stereo not given) | 4% |
| CC(C)N(Cc1ccccc1)C(=O)CCc1ccccc1 | 2% |
| O=C(O)c1cc(-c2ccc(F)cc2)n[nH]1 | i |
| O=C(CCn1nc(-c2ccc(Cl)cc2)c2ccccc2c1=O)Nc1ccc(Br)cc1 | 1% |
| C=CCn1c2ccc(C)cc2c2nc3ccccc3nc21 | 2% |
| CC(C)OCCCNC(=O)c1ccc(NS(=O)(=O)c2ccccc2)cc1 | i |
| CC(/C=C\c1nc(O)c([N+](=O)[O-])c(=O)[nH]1)=C\c1ccccc1 | i |
| CCN(C(=O)Nc1ccccc1F)c1nnc(-c2ccc(Cl)cc2)s1 | i |
| O=C(NCCOCc1ccccc1)c1ccccc1Br | 3% |
| CCOC(=O)c1c(C)n(C)c2ccc(OCC(O)Cn3nc(C)c(Br)c3C)cc12 (stereo not given) | 7% |
| O=C(CN1C(=O)c2cccc3cccc1c23)Nc1ccc(S(=O)(=O)N2CCCCCC2)cc1 | i |
| CCOc1nc(-c2ccccc2)ccc1-c1noc(-c2ccccc2Br)n1 | i |
| COc1ccccc1Oc1c(C)oc2cc(OC(=O)N(C)C)ccc2c1=O | 2% |
| COc1cc(C=O)ccc1OC(=O)c1cccs1 | 4.1µg/mL* |
| CC1CCc2c(sc3nnn(CC(=O)Nc4cc(Cl)ccc4Cl)c(=O)c23)C1 (stereo not given) | 39% |
| O=C(O)C1CCCCC1C(=O)NCCc1ccccc1 (stereo not given) | i |
| Cc1ccc(S(=O)(=O)Nc2cc(-c3c(O)ccc4ccccc34)c(O)c3ccccc23)cc1 | 1% |
| Cc1nc2ccccc2c2c1C(=O)N(C(C)Cc1ccccc1)C2=O (stereo not given) | i |
| COc1cccc(C(=O)Nc2c[nH]c(=O)[nH]c2=O)c1 | i |
| O=C(COc1ccccc1Cl)Nc1ccc(C(=O)Nc2ccccc2C(=O)O)cc1 | 0% |

(listing goes on)
| compound | Mtb growth |
| --- | --- |
| OC(COc1ccccc1F)CN1CCN(c2cccc(Cl)c2)CC1 (stereo not given) | 24% |
| CN(Cc1ccccc1)C(=O)COc1ccc(Br)cc1Cl | i |
| O=C(CSc1nc2ccccc2s1)Nc1ccc(I)cc1 | ? |
| CN1CCC(OC(=O)COc2ccc(F)cc2)CC1 | 1% |
| Cc1ccc(-c2nc(Nc3ccc(O)cc3)c3ccccc3n2)cc1 | 2.1µg/mL* |
| COc1cccc(NC(=O)C2CCN(S(=O)(=O)c3cc(Cl)ccc3Cl)CC2)c1 | 0% |
| Cn1c(=O)c2c(nc(Oc3ccc(F)cc3)n2Cc2ccccc2F)n(C)c1=O | i |
| COc1ccccc1OCc1ccc(C(=O)OCc2ccccc2)cc1 | i |
| CC(NC(=O)c1ccccc1NC(=O)Cc1ccccc1)c1ccccc1 (stereo not given) | i |
| CCOC(=O)c1cnc(SCc2cccc(C)c2)nc1N | i |
| O=C(CNC(=O)C1CCCCC1)NNC(=S)NC(=O)c1ccc(Cl)cc1Cl | i |
| O=C(CCc1ccccc1)Nc1ccc(C(=O)c2ccccc2)cc1NC(=O)CCc1ccccc1 | i |
| Cc1noc(C)c1C(=O)NCc1ccccc1Br | 6% |
| Cc1ccc(C)c(C(Nc2ccccn2)c2ccc3ccc(C)nc3c2O)c1 (stereo not given) | i |
| COC(=O)Cc1ccc(NC(=O)c2ccccc2I)cc1 | 0% |
| COCCOC(=O)c1c(C)oc2ccc(NS(=O)(=O)c3cc([N+](=O)[O-])ccc3Cl)cc12 | 3% |
| O=C(Cc1ccc(Cl)cc1)Nc1ccc(CN2CCOCC2)cc1 | i |
| Cc1cc(C)c(NC(=O)CN(C)S(=O)(=O)c2ccc3ccccc3c2)c(C)c1 | 1% |
| COC(=O)c1c(NC(=O)c2ccoc2C)sc2c1-c1ccc(OC)cc1CC2 | i |

Compounds above containing a tert-butyl group:
| compound | Mtb growth |
| --- | --- |
| Cc1cccc(C)c1NC(=O)CC(C)(C)C | i |
| CC(C)(C)NC(=O)CSc1nc(-c2ccccc2)cc(=O)[nH]1 | i |
| CC(C)(C)c1ccc2ccccc2[o+]1 | 16% |

Screens (PubChem BioAssay)

An excerpt; count on the stated rates, not on these rows.
